D2 ag – agonists of human D2 dopamine receptor (beta-arrestin). P14416. DiscoveRx PathHunter D2 beta-arrestin, luminescence, 90 min; 100% = 57 uM dopamine signal. activation, % (concentration not given with the values). 0.084% of 360,000 active. AID 624465; in the data active = activation above about 40%; inconclusive = about 15% to 40%; inactive = below about 15%; also: compound concentration not given in the record; the text of the record calls up to 30% inactive
Target sequence (P14416 whole entry, looked up): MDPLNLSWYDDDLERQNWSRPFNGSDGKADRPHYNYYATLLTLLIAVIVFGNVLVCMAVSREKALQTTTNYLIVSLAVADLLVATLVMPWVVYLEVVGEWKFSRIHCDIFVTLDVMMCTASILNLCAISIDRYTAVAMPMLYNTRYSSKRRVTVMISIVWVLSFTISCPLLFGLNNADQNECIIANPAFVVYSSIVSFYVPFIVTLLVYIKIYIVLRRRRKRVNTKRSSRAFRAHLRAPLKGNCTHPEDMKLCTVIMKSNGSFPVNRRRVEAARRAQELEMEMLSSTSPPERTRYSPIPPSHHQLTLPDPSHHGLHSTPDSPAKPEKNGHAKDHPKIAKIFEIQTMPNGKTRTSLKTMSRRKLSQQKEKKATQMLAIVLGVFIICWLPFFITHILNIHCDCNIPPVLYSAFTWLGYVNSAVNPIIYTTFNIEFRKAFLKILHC
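Agonist mode: compounds alone added to overnight-plated D2 PathHunter cells for 90 min at 37 C, with 57 uM final dopamine (EC100) defining full response. Beta-arrestin recruitment detected by chemiluminescent reagent, read after 1 h at ambient temperature.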
D2 potentiator – human D2 receptor positive allosteric modulation. DiscoveRx D2 beta-arrestin cells, luminescence, 90 min; 100% = 57 uM dopamine signal. potentiation, % (test concentration not listed). 0.23% of 360,000 active; active = potentiation of 50% or more; inconclusive = 30% to 50%; inactive = 30% or less;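 also: compound concentration not given in the record; tested on top of an EC20 dose of dopamine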
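D2 cells co-treated with compound plus 50 nM dopamine (EC20) for 90 min at 37 deg C to detect potentiation. Beta-arrestin recruitment was read as enzyme-fragment luminescence after 1 h at ambient temperature. Full response was set by 57 uM dopamine.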
TRPV1 PAM – human TRPV1 potentiation. Q8NER1. TRPV1-expressing cells, Fluo-8 calcium influx, capsaicin EC20 potentiation; host cell line not named in the record; control for the full effect not named in the record. potentiation, % at 8.33 µM. 0.02% of 320,000 active. AID 540277; active means potentiation above 80%; inconclusive means 30% to 80%; inactive means below 30%; also: 0% is about no effect
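TRPV1-expressing cells were cultured overnight at 35.5C and loaded with Fluo-8 calcium dye for 40 to 90 min at room temperature. After a 10 s baseline, compound was added and calcium influx was read kinetically for 3 min (ex 480/em 520 nm).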
Six1-Eya2 inh – Six1/Eya2 interaction inhibition | AlphaScreen GST-Six1/His-Eya2 binding, biochemical; active compounds read low; control for the full effect not named in the record | activity change, % (test concentration not listed) | 0.56% of 360,000 active; in the data active = activity change below about -65%; inconclusive = about -30% to -65%; inactive = above about -30%; also: % is scaled to controls: 0 for no effect and ±100 for the full control effect
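AlphaScreen luminescence read after one hour at 37 °C in darkness. Pin-transferred compounds met GST-Six1 and His-Eya2 protein (5X stock 250 nM/500 nM) plus glutathione donor and Ni-chelate acceptor beads (5X, 50 ug/mL).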
Sfp inh – Sfp phosphopantetheinyl transferase inhibition; Biochemical Sfp PPTase activity, qHTS; Potency, µM, without a hit: max response, negative = inhibition, actives largely listed as inhibitors; Q9F4F7; 3.5% of 310,000 active; AID 1490; active = well fitted inhibition curve with a large enough effect; inconclusive = small, poorly fitted or top-dose-only effect, or another doubt; inactive = no such curve, though single readings can be large or run the other way;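 also: the enzyme is Sfp with the accession as filed and its product quenches rhodamine fluorescence; potency is read from the fitted curve at half-maximal effect; 0% = enzyme reaction without inhibitor and -100% = no enzyme wells; top concentration of the series not given in the record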
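Compounds were incubated with enzyme (final 15 nM) for 15 min at room temperature before substrate addition started the reaction. Fluorescence at 525 nm excitation, 598 nm emission was recorded immediately and after 30 minutes.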
PINK1 modulator – changes PINK1 expression | PINK1 immunofluorescence, high-content cytometry, 24 h | Potency, µM (doses to about 76.6 µM), without a hit: at the top dose activation (PINK1 increase), usual class: activators | 0.2% of 410,000 active | AID 624263; active = well fitted activation curve with a large enough effect; inconclusive = small, poorly fitted or top-dose-only effect; inactive = flat fitted curve, though single readings scatter; cell line not stated here;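 also: potency is read from the fitted curve at half-maximal effect; % of control where 0% means no effect; nearly all actives have a fitted effect of over 65% in size; a mitochondrial uncoupler was the plate control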
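A stable cell line was treated with compounds at 5 concentrations for 24 hours, with CCCP as control. PINK1 levels and mitochondrial localization were measured by immunofluorescence with mitochondrial, cell and nuclear markers after fixation, read by laser-scanning cytometry.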
CtBP-E1A blk – CtBP/E1A binding inhibition. AlphaScreen GST-E1A/His-CtBP binding, 1536-well; active compounds read low; control for the full effect not named in the record. activity change, % (concentration not given with the values). 0.49% of 340,000 active. AID 651724; in the data active means activity change below about -65%; inconclusive means about -30% to -65%; inactive means above about -30%; also: % is scaled to controls: 0 for no effect and ±100 for the full control effect
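Steps: dispense buffer (Tris pH 8.0, NaCl 300 mM, TCEP 1 mM, BSA, Tween 20); add 5X protein mix (GST-E1A, His-CtBP, 125 nM each); pin 23 nL compound; 2 h at 37 °C, dark; add 5X beads (50 ug/mL); 1 h; read.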
Numbers without * were called inactive; ? = inconclusive; . = not tested or not shown; & = joins results of further samples; [ ] = another dose, or the depositor's remark.

SMILES	D2 ag	D2 potentiator	TRPV1 PAM	Six1-Eya2 inh	Sfp inh	PINK1 modulator	CtBP-E1A blk
O=C(CSc1cccc[n+]1[O-])c1cc(Cl)ccc1Cl	-17.1	-4.5	-7.5	-1.6	-21.9%	2.4%	-14.0
COc1ccccc1C(=O)N1CCc2ccccc21	-2.5	-5.4	9.4	4.0	9.8%	6.7%[38.3 µM]	5.0
O=[N+]([O-])c1c(C(Cl)Cl)nn(-c2ccc(Cl)cc2)c1N1CCCCC1	0.2	5.7	-4.0	?	5.8%	28.7%	?
O=C(Nc1cccc(Br)c1)c1ccc(Cl)c(S(=O)(=O)N2CCOCC2)c1	1.5	-13.0	24.3	-28.0	7.0%	2.4%[38.3 µM]	12.2
Cc1ccc2cn[nH]c2c1NC(=S)NC(=O)c1ccccc1	-0.6	-9.2	.	-1.5	4.5%	-4.8%	0.7
COc1ccccc1/C=C/C(=O)NCCc1ccccn1	-2.1	-8.0	3.1	-3.2	7.5%	-2.6%	4.1
COc1cccc(CNC(=O)c2nnn(CC(=O)Nc3c(C)cccc3C)c2N)c1	1.1	-5.6	10.1	5.9	6.0%	5.2%	-0.5
NS(=O)(=O)OCCCCCc1ccccc1	-1.7	-1.2	-3.5	7.5	0.6%	0.3%	9.1
COc1ccccc1N(CC(=O)Nc1ccccc1C(=O)N1CCOCC1)S(C)(=O)=O	-3.1	-1.5	3.5	7.5	4.1%	-0.5%	1.4
COc1ccc(S(=O)(=O)N(C)C)cc1NC(=O)COC(=O)c1nn(C)c(=O)c2ccccc12	-2.9	-14.9	-3.1	-1.0	-6.6%	0.3%	.
O=C(c1n[nH]c2c1CCC2)N1CCCC(Nc2cccc(F)c2)C1 (stereo not drawn)	3.7	4.4	-2.8	13.2	4.8%	0.3%	-1.5
Cc1occc1-c1nnc(SCC(=O)N2c3ccccc3CCc3ccccc32)n1C	-6.7	-28.8	2.6	4.9	14.5%	1.9%	18.5
CC(NS(C)(=O)=O)C(c1cccs1)N1CCN(c2ccc(F)cc2)CC1 (stereo not drawn)	-0.2	4.4	6.6	-2.9	-13.8%	0.5%[38.3 µM]	-3.6
Cc1nnc(NS(=O)(=O)c2ccc(F)cc2)s1	-1.7	-1.1	.	-3.3	.	0.2%	2.6
CCOC(=O)C1=C(C)Nc2ccccc2N/C1=N\S(=O)(=O)c1cc(C(=O)O)ccc1Cl	3.3	3.2	17.6	4.7	.	2.1%	2.9
O=C(C1CCCN1C(=O)c1cccs1)N1CCN(S(=O)(=O)c2ccc(F)cc2)CC1 (stereo not drawn)	-1.1	-1.9	1.2	7.2	.	-1.5%	8.2
Cn1c(=O)c2c(nc3n2CC(CO)O3)n(C)c1=O (stereo not drawn)	1.1	-7.3	13.6	0.3	2.6%	-0.6%	2.9
O=C1/C(=C/c2cccnc2)SC(=S)N1N1CCOCC1	-2.8	-3.2	-5.1	-4.1	-24.7%	4.1%	-5.0
CC1CN(c2snnc2C=C2C(=O)OC(C)(C)OC2=O)CC(C)O1 (stereo not drawn)	-2.1	-6.7	-0.8	1.6	50.1µM*	0.3%	-1.4
COc1cccc(C2=CC(=O)CC(C)(C)C2)c1	-2.6	-2.0	-5.5	1.7	.	2.4%	7.4
O=C1N/C(=N/N=C/c2ccccc2O)SC1Cc1ccc(F)cc1 (stereo not drawn)	-6.6	-3.4	27.3	2.8	-19.8%	13.7%	5.5
CC1(C(=O)N/N=C/c2cc3c(cc2Br)OCO3)CC1(Br)Br (stereo not drawn)	-6.5	-1.6	-11.9	0.9	-11.6%	1.4%	-4.2
N#CCCn1[nH]c(-c2ccccc2)cc1=O	5.9	-6.4	3.4	-0.3	0.8%	0.4%	4.7
Cc1ccc(C(=O)Cn2nnc3ccccc32)cc1C	-0.4	-10.7	-16.2	1.7	-10.3%	0.3%[38.3 µM]	1.9
CCCN=C1N(CC)C[C@@H]2[C@@H]3C(=O)N(C)C(=O)[C@@H]3[C@](Cc3ccccc3)(C(=O)OC)N12	-1.2	-1.0	.	6.1	.	1.0%	-4.8
CCCCN(C)C(=O)c1cn(C)c2ccc(S(=O)(=O)N3CCC(C)CC3)cc2c1=O	0.1	-11.6	-5.8	-1.4	5.7%	-0.6%&0.6%	1.3
CCCCC(=O)Nc1ccc(C(=O)NCCc2ccc(S(N)(=O)=O)cc2)cc1	-1.5	0.4	7.6	5.6	19.7%	2.6%	13.1
Nc1nonc1-n1nnc(C(=O)N/N=C/c2ccc(OCc3ccc(F)cc3)cc2)c1COc1ccccc1	?	3.7	?	4.6	31.1%[activator]	-0.3%	3.3
O=S1(=O)C=C(SCc2ccc(Cl)c(Cl)c2)Nc2ccccc21	5.1	-3.7	-11.2	-5.4	-1.2%	?	-1.8
COc1ccc(Nc2nc(N)nc(CSc3nnc(C)s3)n2)cc1	-0.5	-4.7	9.2	-20.0	7.4%	-0.9%	-23.6
O=C(NNc1ccccc1)C(CCO)C(=O)NNc1ccccc1	0.1	-13.3	-0.1	4.2	-5.5%	0.1%	6.2
Cc1ccc(S(=O)(=O)N2CCCN(C(=O)CNC(=O)c3cccc(C)c3)CC2)cc1	-2.5	-0.5	4.1	22.0	.	1.5%	19.7
CN(C(=O)c1cccc(NC(=O)Cc2cccc(NC(=O)C3CCN(C(=O)C4CCC4)CC3)c2)c1)C1CCC1	-0.8	.	.	-10.9	.	0.6%	-13.0
CC(C)C1COS(=O)(=O)NC1CC(=O)SC(C)(C)C (stereo not drawn)	-0.7	-14.7	-19.2	-4.3	12.8%	1.0%	1.6
Cc1ccc(S(=O)(=O)n2nc(C)c(C#N)c2N)cc1	1.0	-2.0	6.3	2.9	-1.3%	0.4%	3.9
CCOC(=O)C1CCN(C(c2ccccn2)c2c(C)[nH]c3ccccc23)CC1 (stereo not drawn)	-2.0	-31.3	-35.6	-11.0	?	1.9%	-6.0

4 compounds from above, limited to Six1-Eya2 inh, D2 ag and D2 potentiator:
SMILES	Six1-Eya2 inh	D2 ag	D2 potentiator
CCCCC(=O)Nc1ccc(C(=O)NCCc2ccc(S(N)(=O)=O)cc2)cc1	5.6	-1.5	0.4
CN(C(=O)c1cccc(NC(=O)Cc2cccc(NC(=O)C3CCN(C(=O)C4CCC4)CC3)c2)c1)C1CCC1	-10.9	-0.8	.
CC(C)C1COS(=O)(=O)NC1CC(=O)SC(C)(C)C (stereo not drawn)	-4.3	-0.7	-14.7
CCCCN(C)C(=O)c1cn(C)c2ccc(S(=O)(=O)N3CCC(C)CC3)cc2c1=O	-1.4	0.1	-11.6

Other results follow.
SMILES	D2 ag	D2 potentiator	TRPV1 PAM	Six1-Eya2 inh	Sfp inh	PINK1 modulator	CtBP-E1A blk
CC(NC(=O)c1ccc(F)cc1)c1nc2ccccc2n1Cc1ccccc1F (stereo not drawn)	-1.9	-6.5	-17.4	-2.3	1.7%	-2.0%[38.3 µM]	0.4
Cc1ccc(OC2CCN(C(=O)[C@H]3O[C@@H](n4cnc5c(N)ncnc54)[C@H](O)[C@@H]3O)CC2)cc1	-6.0	-4.6	.	3.2	.	2.1%	3.1
Cc1cc(NC2C3CC4CC(C3)CC2C4)n2nnnc2n1 (stereo not drawn)	-3.2	-30.6	-8.7	0.4	-4.5%	-0.2%[38.3 µM]	0.3
Cc1ccccc1CC1(CO)CCCN(Cc2nc(-c3cccs3)oc2C)C1 (stereo not drawn)	-3.8	-14.1	-7.2	3.9	-4.7%	23.4%	.
Cc1ccc(OCc2nnc(N)s2)cc1C	-6.3	-4.9	-5.9	-12.3	-1.8%	0.7%	2.2
COc1ccccc1NC(=O)Cn1cncc1-c1ccc([N+](=O)[O-])cc1	3.7	-3.8	20.8	-1.7	-38.6%	9.4%	-2.7
O=C(NCc1ccccc1Cl)C(=O)c1c[nH]c2ccccc12	-1.4	-1.3	8.4	6.3	8.6%	4.3%	10.4
COC(=O)Cc1c(O)ccn(Cc2cccc3ccccc23)c1=O	-2.9	-9.3	2.4	-23.3	24.5%	0.8%[38.3 µM]	-26.4
O=Cc1c(NCCN2CCOCC2)c2ccccc2[nH]c1=O	-1.4	-0.2	0.9	-1.6	9.1%	1.2%	9.8
Nc1ccnc(C(F)(F)F)c1C(=O)c1ccccc1	0.7	-19.5	-11.0	3.6	20.5%	0.9%	-0.9
CCn1c(SCC(=O)Nc2ccc3[nH]c(=O)[nH]c3c2)nnc1-c1ccccc1	-1.9	-8.4	0.7	8.3	11.0%	0.9%	-3.5
Cc1cccc(NC(=O)CSc2nc(C)c(Cc3ccccc3)c(=O)[nH]2)c1C	.	.	-4.1	.	14.1%	0.0%	.
O=C(O)c1ccc(S(=O)(=O)c2ccc3c(c2)C(=O)N(c2ccc(O)cc2)C3=O)cc1	4.2	-1.7	10.7	-3.3	0.2%	1.0%	.
O=C(CN(Cc1ccccc1)C(=O)c1ccco1)NCc1ccc(F)cc1	-1.4	-19.2	-1.2	0.2	14.4%	-0.4%	-1.3
CCOC(=O)c1cc(NC(=O)N(C(C)C)C2CCCCC2)c(C)nc1C	-0.6	3.0	-3.2	-2.6	14.2%	-1.1%	-5.1
COc1ccc(NC(=O)C(=O)N/N=C/c2cc(C)n(-c3cccc(Cl)c3Cl)c2C)c(OC)c1	-1.4	4.5	16.9	0.7	8.2%	-5.0%[38.3 µM]	-0.1
CCCCSCCCNC(=O)c1ccc2c(c1)N(CC)C(=O)c1ccccc1S2=O (stereo not drawn)	-1.7	-20.3	1.7	0.8	7.7%	4.2%	6.5
CCOc1ccc2c(C)nc(NC3=NC(C)(C)C=C(C)N3)nc2c1	-4.8	-14.3	-2.3	-3.1	-7.8%	1.0%	-10.7
Cc1ccc(/C=C2\SC(=S)N(c3cccnc3)C2=O)cc1	-7.1	-3.6	7.9	-2.7	-22.0%	2.9%	-1.2
COC(=O)c1ccc(NC(=O)CN(c2ccc3c(c2)OCO3)S(C)(=O)=O)cc1	-2.0	-20.1	1.9	-2.0	-2.9%	0.4%	4.6
CCN(CC)CCCNC(=O)c1cc(Cl)c(NC(=O)C2=C(C)OCCS2)cc1OC	-6.5	-26.8	9.1	-9.2	13.5%	-2.5%	-4.3
COc1cc(/C=C/C(=O)O)cc(S(=O)(=O)Nc2ccc3c(c2)OCO3)c1OC	2.3	-0.2	0.7	0.4	17.7%	2.9%	22.6
Cc1ccc(C)c(NS(=O)(=O)c2cc(C(=O)NCCSC3CCCCC3)ccc2C)c1	-0.1	2.2	-10.2	-1.0	19.6%	-3.3%[38.3 µM]	1.5
Cc1nn(-c2ccccc2)c(C)c1NC(=O)COc1ccc([N+](=O)[O-])cc1	-3.5	17.6	-6.7	-8.1	.	2.3%	-0.6
